# HNF4A DNA FP: change in binding of human HNF4 alpha to DNA; AID 1224865; 0.3% of 360,000 active; P41235; activity change, % at 10 µM; HNF4a-FITC DNA binding, fluorescence polarization, 1 h; in the data active = activity change above about 30%, passing the limit was not always enough;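 also: controls were the assay level and a saturating level of protein; the project sought stronger binding though the title names inhibitors; some compounds called inactive have numbers as strong as hits; positive values seem to mean higher polarization but the record does not say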
# Target sequence (P41235 whole entry, looked up): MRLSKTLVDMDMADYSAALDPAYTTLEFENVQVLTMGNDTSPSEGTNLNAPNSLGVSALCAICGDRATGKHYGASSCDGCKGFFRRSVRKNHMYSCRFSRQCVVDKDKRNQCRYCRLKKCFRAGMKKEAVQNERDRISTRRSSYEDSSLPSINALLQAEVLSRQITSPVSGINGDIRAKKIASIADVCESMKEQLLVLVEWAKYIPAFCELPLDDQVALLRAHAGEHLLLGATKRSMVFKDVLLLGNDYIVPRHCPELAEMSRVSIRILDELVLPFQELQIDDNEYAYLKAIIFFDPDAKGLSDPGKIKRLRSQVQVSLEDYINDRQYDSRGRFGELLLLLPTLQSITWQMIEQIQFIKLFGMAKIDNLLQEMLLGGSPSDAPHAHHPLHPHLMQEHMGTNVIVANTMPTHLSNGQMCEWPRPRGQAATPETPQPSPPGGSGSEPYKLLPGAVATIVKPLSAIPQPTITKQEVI
# Vif A3G: HIV-1 Vif–A3G interaction blockers – biochemical, TR-FRET, GST-Vif 1-94, biotin-A3G peptide, dose response retest, primary screen (AID 1117319) | TR-FRET GST-Vif / biotin-A3G peptide binding; higher % means a stronger effect; test concentration not given here; strong numbers were not always called active | one-dose inhibition, %; IC50 in µM for titrated hits | 0.57% of 260,000 active;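 active = above the screen mean plus three standard deviations and confirmed in dose response; inconclusive = results disagree or hit not tested in dose response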;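 also: Vif residues 1-94 fused to GST binding biotinylated APOBEC3G peptide 110-148; 0% = full assay without inhibitor and 100% = GST in place of GST-Vif; retest series ran down from 100 µM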
# MLL AF4-AF9 inh: blocks AF4 peptide binding to human AF9; 0.47% of 350,000 active; inhibition, % at 10 µM; AID 651704; P42568; AlphaScreen, biotin-AF4 peptide binding to FLAG-AF9;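 active = every replicate reaching a set inhibition limit, whatever the replicate mean, cut at about 25% in these data; inconclusive = mean inhibition reaches that limit but some replicates miss it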;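 also: 0% = plate neutral control median and 100% = total signal loss; the record names both 10 and 1 µM as test concentration; the first replicate is given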
# FGF22 binding: FGF22 (human) thermal shift binding | Q9HCT0 | recombinant FGF22 thermal shift, SYPRO orange fluorescence; percent of sucrose octasulfate shift, DMSO zero | calls only at 9.99 µM | 1.5% of 340,000 active | AID 651658;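 active = melting point raised past a set limit in the mean and every replicate; inconclusive = no clear call; three in four hits are not shown here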
# Target sequence (Q9HCT0 whole entry, looked up): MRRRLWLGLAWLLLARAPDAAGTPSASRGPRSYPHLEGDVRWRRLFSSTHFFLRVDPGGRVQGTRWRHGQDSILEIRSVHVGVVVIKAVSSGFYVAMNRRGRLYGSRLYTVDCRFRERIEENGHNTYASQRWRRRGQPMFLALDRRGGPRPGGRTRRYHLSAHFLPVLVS
# RanGTP-Imp inh: disruptors of Ran-importin-beta complex formation – biochemical, FRET, CFP-Ran, YFP-importin-beta, homogeneous, primary screen; cell-free CFP-Ran/YFP-importin-beta FRET ratio; inhibition, % (concentration not given with the values); 1.1% of 300,000 active; AID 2216;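 active = most replicates above 15%; inconclusive = exactly half above 15%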;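 also: 0% = DMSO wells and 100% = Ran loaded with GDP instead of GTP; wells of about 40 µL received 100 nL stock; the first replicate is given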
# Ecoli growth: E. coli growth inhibition; Escherichia coli growth, OD600, 23 h; stronger effect = lower value; OD600 absorbance (test concentration not listed); 0.21% of 330,000 active; AID 1053175;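 active = OD600 absorbance below the run mean of sample wells minus 3.6 SD, in any replicate, cut at about 0.56 in these data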;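 also: stock transfer was 300 nL into about 60 µL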
# UCH37 DUB inh: inhibitors of human deubiquitinating enzyme UCH37. purified proteasome/UCH37, Ub-AMC cleavage fluorescence. Q9Y5K5. 0.33% of 330,000 active. inhibition, % (no concentration beside the values);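 active = mean of two replicates above 20%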;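 also: 0% = compound-free wells with enzyme and 100% = wells lacking proteasome; stock transfer was 100 nL into about 20 µL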
# Target sequence (Q9Y5K5 whole entry, looked up): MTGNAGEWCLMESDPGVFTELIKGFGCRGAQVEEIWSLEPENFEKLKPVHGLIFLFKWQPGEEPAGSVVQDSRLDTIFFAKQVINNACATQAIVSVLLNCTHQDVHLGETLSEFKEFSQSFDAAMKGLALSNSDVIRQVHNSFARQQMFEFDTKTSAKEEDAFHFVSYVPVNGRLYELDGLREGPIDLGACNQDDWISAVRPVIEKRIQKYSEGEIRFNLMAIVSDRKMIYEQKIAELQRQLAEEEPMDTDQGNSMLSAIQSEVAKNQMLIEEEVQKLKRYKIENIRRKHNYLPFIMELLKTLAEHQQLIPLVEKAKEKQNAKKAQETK
#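 Schedule: 30 min plus 25 min, room temperature / Material: human UCH37 within purified proteasomes / Technique: AMC fluorescence intensity at 355/460 nm / Buffer or medium: pH 7.4 Tris-HCl (50 mM) with ovalbumin, ATP-MgCl2, DTT / Controls: wells without proteasome as full block, compound-free enzyme plus substrate as uninhibited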
# Numbers without * were called inactive; i = inactive; ? = inconclusive; . = no result given; & = joins results of further samples. An excerpt; the hit share may differ from the screen's.
# Results follow in this order: HNF4A DNA FP, Vif A3G, MLL AF4-AF9 inh, FGF22 binding, RanGTP-Imp inh, Ecoli growth, UCH37 DUB inh
> CC(C)Sc1nnc(CNC(=O)C23CC4CC(CC(C4)C2)C3)n1Cc1ccccc1
  -2.9, ., 0.3, i, -1.8, 0.68, 5.3
> CCC(C)(C)NC(=O)C(C(C)C)N(CC1CCCO1)C(=O)CNS(=O)(=O)c1ccc(F)cc1 (centres undefined)
  -1.3, -12%, -1.4, i, 1.7, 0.68, 2.3
> COc1cc(-c2c(C#N)c(N)nc3[nH]c(=S)[nH]c(=O)c23)ccc1O
  4.4, -3%, -25, i, 0.6, 0.68, 23*
> CC(C(=O)NC(C)(C)C)N(C(=O)CS(=O)CC(=O)Nc1ccc(F)cc1)c1ccccc1F (centres undefined)
  5.3, 1%, -0.5, i, -2.3, 0.65, -0.5
> COC(=O)c1csc(C2OC(CO)C(O)C2O)n1 (centres undefined)
  0.1, 0%, -0.3, i, ., ., .
> CC(C)Nc1nc(-c2cccnc2)nc(-c2ccc(Cl)cc2)c1C#N
  2.1, -267%, -4.3, i, 3.7, 0.71, -25
> S=C(NCCc1ccccc1)Nc1ccccn1
  2.8, 8%, ., ., 5.8, 0.74, 4.8
> COc1ccc(S(=O)(=O)N2CCN(C(=O)N(C)C)C2C)cc1 (centres undefined)
  -3.2, ., -2.9, i, -2.5, 0.64, 4.7
> C=CC[C@@H](CC(=O)N(CCO)Cc1ccccc1)C(=O)NC[C@H](OC(=O)[C@@H](CC=C)CC(=O)OC(C)(C)C)c1ccccc1
  -2.8, ., -1.0, i, ., 0.76, 0.5
> Cc1ccc(S(=O)(=O)N2CCC(=O)N(C(COCc3cccc(C)c3)Cc3ccccc3)CC2)cc1 (centres undefined)
  4.3, 13%, -2.5, i, -2.0, 0.72, 1.2
> COc1ccc(C(O)c2nccc3cc(OC)c(OC)cc23)cc1OC (centres undefined)
  3.8, 0%, 1.3, ., -2.5, 0.67, 15
> Cc1cccc(NC(=O)C(C)Sc2nc3nc(C)cc(C)n3n2)c1 (centres undefined)
  3.2, -4%, -45, i, ., 0.66, -3.2
> CCc1nc2c(OCc3ccccc3)cccn2c1N(Cc1ccccc1)C(C)=O
  3.3, ., 0.4, i, ., ., .
> CN(C)C(CNC(=O)c1cc(S(=O)(=O)N(C)c2ccccc2)ccc1Cl)c1ccccc1 (centres undefined)
  0.2, -11%, 11, i, ?, 0.66, 2.5
> CN(C)C(=O)c1nnc(Cc2ccc(Cl)cc2)o1
  1.4, 2%, 3.1, i, 2.7, 0.69, -1.7
> Cc1ccc(S(=O)(=O)N2CC(O)CC2C(=O)NCc2ccc3c(c2)OCO3)cc1 (centres undefined)
  1.4, ., -0.2, i, 6.9, 0.75, 2.2
> O=C(Nc1ccc(Oc2ccsc2C(=O)O)cc1)c1ccccc1
  2.5, -7%, 1.3, i, 4.7, 0.67, 2.4
> CCn1cc(C(=O)N(C)c2ccc(OC)cc2)c2cc(OC)c(OC)cc2c1=O
  1.1, -11%, -2.4, i, 0.2, 0.65, 5.7
> CCOc1cc(C(=O)Nc2ccc(C)cc2O)ccc1OCC(=O)N1CCOCC1
  5.2, 25%, 5.6, i, 0.0, 0.67, -0.5
> COc1ccccc1/C=C/C(=O)NCC(=O)N/N=C/c1ccc(C(=O)O)cc1
  -0.2, 0%, 1.0, i, 2.8, ., .
> O=S(=O)(CCc1nc2ccccc2s1)c1ccc(Cl)cc1
  0.7, -7%, ., ., 4.8, 0.67, 2.2
> Cc1cc(NC(=O)c2c(C)noc2C)no1
  8.1, -5%, -0.1, i, 6.6, 0.7, 4.7
> COc1ccc(NC(=O)c2ccc3c(c2)C(=O)N(CC2CCCO2)C3=O)cc1O (centres undefined)
  1.8, ., -3.2, i, 1.2, 0.69, 3.7
> O=C(CSCc1ccc(Br)cc1)N=Nc1c(O)[nH]c2ccccc12
  0.9, 6%, -5.6, i, -1.1, 0.66, 2.7
> Cc1nn(C(=O)Cn2ccc([N+](=O)[O-])n2)c(C)c1Br
  -7.0, 7%, -44, i, 4.3, 0.66, 1.0
> C=CCn1c(SCC(=O)c2ccc(O)c(O)c2)nnc1-c1cccc(C)c1
  -4.3, ., -3.3, i, ., 0.69, 6.6
> COC(=O)C(C(=O)N1CCN(C)CC1)C1CCCCCC1 (centres undefined)
  -1.8, 7%, ., ., ., 0.7, 2.4
> CCOc1ccccc1NC(=O)Nc1ccc(Br)cc1C
  -0.4, -8%, -1.2, i, -2.3, 0.71, 3.1
> CC(C)(C)C(=O)OC/C(N)=N/OC(=O)c1ccccc1
  5.7, -9%, 1.9, i, 1.7, 0.61, 2.7
> CCn1c(SC)nnc1C1CCCN(CC(=O)Nc2ccccc2N2CCOCC2)C1 (centres undefined)
  0.5, ., 2.7, i, 3.1, 0.65, 0.2
> O=C(Nc1cccc(C(F)(F)F)c1)NC1CCN(S(=O)(=O)c2ccc(F)cc2)CC1
  1.9, -2%, ., ., -0.8, 0.73, -0.5
> O=C(Oc1ccc2c(c1)OCO2)c1cc2c(s1)CCC2
  -10, 27%, ., ., -3.2, 0.78, 3.2
> Cc1ccc(S(=O)(=O)N2CCN(C(=O)COC(=O)c3c(C)cc(C)cc3C)CC2)c(C)c1
  -2.8, -4%, 0.2, i, 1.7, 0.73, 1.4
> CCOC(=O)N1CCN(C(=O)CN(c2ccccc2OC)S(=O)(=O)c2ccc(C)cc2)CC1
  2.6, 13%&1%, ., ., 5.9, 0.66, 1.4
> Cc1ccc(OCC(=O)NNC(=O)C2CC(=O)N(c3ccc4c(c3)OCCO4)C2)cc1 (centres undefined)
  -0.4, 2%, -4.0, i, 0.0, 0.71, 0.8
> CCCn1c(C2CCCN2c2nc(-c3ccc(OC)cc3)cs2)nc2ccccc21 (centres undefined)
  0.5, ., ., ., -1.0, 0.83, 1.0
> CCCc1cc(-c2n[nH]c(=S)n2CC)c2ccccc2n1
  2.7, 32%, ., ., -6.1, 0.68, 4.5
> CNc1cc(C)nc(-n2nc(C)cc2C)n1
  -1.9, -6%, ., ., 2.3, 0.78, 0.8
> Cc1nc2nc(Cc3ccccc3)[nH]n2c(=O)c1Cc1ccccc1
  4.2, 12%, ., ., ., 0.57, 7.8
> COc1ccc(CN2CCC(=O)N([C@H](CO)CC(C)C)CC2)cc1
  -0.6, ., 4.3, i, -0.8, ., 1.1
> Cc1onc(-c2ccccc2)c1C(=O)NNC(=O)c1ccccc1Br
  -2.8, 1%, -7.0, i, ., 0.66, 1.1
> O=C(CCC1CCCN(C(=O)c2ccncc2)C1)NCc1ccc(F)c(F)c1 (centres undefined)
  2.5, 1%, 0.5, i, -2.6, 0.72, 3.3
> Cc1nnc2c(N3CCN(CCO)CC3)nc3ccccc3n12
  -0.1, -7%, 4.4, i, -4.0, 0.69, 2.1
> Cc1cc(C)nc(NS(=O)(=O)c2ccc(NS(=O)(=O)c3ccccc3)cc2)n1
  0.0, 0%, -50, i, 1.8, 0.66, 0.8
> Cc1cccc(NC(=O)c2cc(N3CCOCC3)nc3ccccc23)c1
  -8.1, -22%, ., ., 0.3, 0.68, -6.6
> Cc1ccc(S(=O)(=O)NCC(=O)OC(C)C(=O)NCc2ccc3c(c2)OCO3)cc1 (centres undefined)
  0.8, -9%, -8.0, i, ., 0.69, 3.5
> CC(Oc1cc2oc(=O)c3c(c2cc1Cl)CCC3)C(=O)NCCCN1CCCC1=O (centres undefined)
  7.5, ., -1.9, i, -5.1, 0.69, -62
> CCN(CC)S(=O)(=O)c1ccc(C)c(NC(=O)COC(=O)c2ccc(C)c(S(=O)(=O)N3CCOCC3)c2)c1
  3.3, 1%, ., ., -1.0, 0.75, 0.6
> COc1ccc(CN2C(=NC(=O)C3CC3)SC3CS(=O)(=O)CC32)cc1 (centres undefined)
  -0.8, 1%, -1.0, i, 6.6, 0.7, 2.2
> CC(C)C(NC(=O)C1CCCCC1)C(=O)Nc1ccccn1 (centres undefined)
  3.8, -1%, ., ., 2.9, 0.82, 5.1
> CCc1ccc(OCC(=O)NC(NC(=S)Nc2ccccc2C)C(Cl)(Cl)Cl)cc1 (centres undefined)
  1.1, 4%, 2.1, i, 0.5, 0.68, -1.0
> CN(C(=O)c1cccc(NC(=O)C2CCCN(C(=O)OC(C)(C)C)C2)c1)C1CCC1 (centres undefined)
  0.4, ., 0.5, i, ., 0.7, 1.5
> CCOC(=O)CNC(=O)CCCCCC(=O)NCC(=O)OCC
  0.0, 1%, ., ., -1.5, 0.81, 3.9
> CSc1ccc(-c2cccc([N+](=O)[O-])c2)nn1
  2.9, 7%, -2.8, i, ?, 0.68, 4.3
> O=C(CSc1nc2[nH]c(=O)cc(O)c2s1)Nc1nncs1
  1.3, ., 0.9, i, ., ., .
> CC(C)c1ccc(C(=O)NN2C(=O)C3CCCCC3C2=O)cc1 (centres undefined)
  -2.6, 8%, 5.2, i, 0.7, ., -0.4
> COCCNC(=O)c1ccc2c(=O)n(CCOC)c(=O)[nH]c2c1
  -1.2, 1%, ., ., -1.8, 0.67, -22
> COc1ccccc1C(=O)NC(=S)Nc1ccccc1N1CCCCC1
  1.3, ., 0.5, i, -1.2, 0.75, 4.4
> CCOC(=O)c1sc2nc3n(c(=O)c2c1C)CCC(C)CC3 (centres undefined)
  -0.6, 1%, 2.6, i, 0.6, 0.7, 0.1
> CCOc1ccc(S(=O)(=O)N2CCCCC2)cc1NC(=O)c1c(CC)noc1C
  -3.1, 2%, -2.2, i, ., 0.69, 3.3

# Continued:
# Results follow in this order: HNF4A DNA FP, Vif A3G, MLL AF4-AF9 inh, FGF22 binding, RanGTP-Imp inh, Ecoli growth, UCH37 DUB inh
> CCCCN(C(=O)NC(=O)Nc1ccccc1OCC)S(C)(=O)=O
  -1.1, 0%, ., ., -2.3, 0.71, 3.3
> CC(=O)Nc1cc(-c2cccc(C(=O)N(C)C)c2)cn2c(-c3ccc(F)c(Cl)c3)cnc12
  4.8, ., 0.7, i, ., ., .
> Fc1ccccc1CSc1nncn1NCc1cccs1
  1.3, -7%, ., ., -3.9, 0.63, 0.0
> N#Cc1cn(Cc2cccc(Cl)c2)c2ccccc12
  -2.0, -6%, ., ., 2.6, 0.71, -8.0
> Cc1nn(C)c(=S)n1-c1ccc(Cl)cc1
  -1.0, ., -0.5, i, 2.8, 0.71, 1.2
> Nc1cc(C(F)(F)F)ccc1N1CCOCC1
  3.3, 10%, 8.2, i, ?, 0.69, -8.4
> CCN1CCCC1CNC(=O)Cn1ncc2c(=O)oc3ccc(C)cc3c21 (centres undefined)
  4.2, -7%, -4.1, i, -4.0, 0.7, 2.7
> COc1ccc(N2CCN(CC(=O)c3ccc(O)cc3O)CC2)cc1
  -1.4, ., -2.4, i, 0.5, ., .
> CCN(C(=O)c1cc2cccc(OC)c2oc1=O)c1ccccc1
  0.4, 2%, ., ., 4.6, 0.75, 2.9
> O=C1CCC(C(=O)N2CCN(c3ccccc3Cl)CC2)CN1CC1CCCCC1 (centres undefined)
  1.3, ., -4.1, i, 2.8, 0.68, 4.8
> Cn1c(NC(=O)c2ccccc2)c(-c2ccccn2)c(=O)c2ccccc21
  1.2, 3%, 1.1, i, 0.5, 0.7, 2.5
> CCOC(=O)C1CCN(C(=O)COC(=O)c2ccccc2C(=O)c2ccc(Cl)cc2)CC1
  -3.8, 7%, ?, i, -0.3, 0.65, 0.0

# Compound activity as filed in PubChem.
